Assay outcomes (PubChem BioAssay)
Mtb hypoxia inh: Mtb hypoxia fluorescent reporter inhibition. M. tuberculosis hypoxia-regulated fluorescent reporter, fluorescence. fluorescence inhibition, % (test concentration not listed). hit rate 0.1% among 300,000. AID 1159583;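 active = 35 to 45% if threefold the growth effect, above 45% if 1.5-fold the growth effect; inactive = the rest, general growth blockers included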;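 also: wells of about 50 µL received 100 nL stock; 0% = vehicle wells and 100% = reference inhibitor wells; whole bacteria with a GFP reporter of the hypoxia response; strong numbers were not always called active; many hits fall short of the cut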
RN4220 kill: kills Staphylococcus aureus RN4220. S. aureus RN4220 growth, OD600, 16 h. inhibition, % (no concentration beside the values). hit rate 0.33% among 330,000. AID 1259311;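 active = z-score of -3 or lower and OD600 up to 0.18 on both plates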;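 also: plate controls were untreated cells for no effect and reference antibiotic for full effect; stock transfer was 100 nL into about 80 µL; one replicate is shown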
PrP 5UTR inh: suppresses PrP 5' UTR mRNA reporter expression. hit rate 0.35% among 340,000. inhibition, % (no concentration beside the values). cell-based PrP 5' UTR mRNA reporter, plate reader;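 active = every replicate at 50% or more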;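 also: 0 = median of the neutral control wells; tested in H4 reporter cells; numbers are from one replicate; inactives centre near -14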
Bead autofluor: counter-screen for toxin protease inhibitors: compound fluorescence; compound autofluorescence counterscreen, microsphere flow cytometry; active compounds read high; fluorescence intensity (test concentration not listed); hit rate 3.1% among 360,000; AID 624483;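 active = at least 3 SD above the mean of all compounds, about 16000 in these data; inconclusive = too few beads counted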;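 also: 100 nL of 1 mM stock went into each well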
BJeLR viability: BJeLR cell viability loss. BJeLR (HRASV12) viability, CellTiter-Glo ATP luminescence, 48 h; reference of the scale not given here. inhibition, % (concentration not given with the values). hit rate 0.17% among 300,000;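 active = replicate mean above 50%; inconclusive = above 50% but judged a plate artefact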;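 also: 50 nL library stock added to about 25 µL; numbers are from one replicate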
ugtP null kill: compounds lethal to S. aureus RN4220 ugtP deletion mutant. OD600 growth, 16 h; some inactives read as strong as hits. growth inhibition, % (test concentration not listed). hit rate 0.54% among 330,000. AID 1259309;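 active = z-score under -3 and OD600 up to 0.15 on both plates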;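 also: plate controls were untreated wells for no effect and antibiotic for full effect; wells of about 80 µL received 100 nL stock; the first replicate is given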
Mtb hypoxia inh growth: recorded beside Mtb hypoxia inh, whose call it bears; growth inhibition, %; measured here: M. tuberculosis growth (absorbance);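 0% = vehicle and 100% = reference antibiotic; read after six days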
* hit, by the source's call; ? = inconclusive; · = not tested or not shown; & = joins results of further samples.

Screens by letter – A = Mtb hypoxia inh; B = Mtb hypoxia inh growth; C = RN4220 kill; D = PrP 5UTR inh; E = Bead autofluor; F = BJeLR viability; G = ugtP null kill
#1 O=C1NN(c2ccccc2)C(=O)/C1=C/c1ccc(-c2ccc(Cl)c(C(=O)O)c2)o1
  A: 15; B: -2; C: 5.3; D: -11; E: 2293; F: 4; G: 0

#2 COc1ccc(CC(=O)NN=Cc2cc([N+](=O)[O-])cc(Br)c2O)cc1
  A: 7; B: 4; C: 41; D: ·; E: ·; F: ·; G: 6

#3 O=C(CS(=O)CC(=O)Nc1cccc2c1CCCC2)Nc1ccc(F)cc1 (stereo not drawn)
  A: -5; B: 1; C: 0.9; D: -2; E: 9088; F: -11; G: -5

#4 Cn1cccc1CC(=O)N/N=C/c1ccc(C(C)(C)C)cc1
  A: ·; B: ·; C: ·; D: -37; E: 4032; F: 4; G: ·

#5 Cc1ccc(S(=O)(=O)NCc2ccc(C(=O)N3CCc4ccccc4C3)cc2)cc1
  A: -4; B: 2; C: 8.4; D: -46; E: 2495; F: -4; G: -5

#6 Cc1ccccc1OCC(=O)Nc1cc(S(=O)(=O)N2CCCCC2)ccc1N1CCN(C)CC1
  A: 14; B: -7; C: 7.3; D: -7; E: 4832; F: -4; G: 8

#7 c1cc(CNCCNCc2ccncc2)ccn1
  A: 12; B: 2; C: 1.7; D: 11; E: 2769; F: ·; G: 5

#8 Cc1noc(C)c1CSc1nc2cc(S(=O)(=O)N3CCOCC3)ccc2o1
  A: ·; B: ·; C: 1.3; D: -16; E: 2689; F: 0; G: 2

#9 CCCN(C(=O)C1CSC2(C)CCC(=O)N12)c1c(N)n(Cc2ccccc2)c(=O)[nH]c1=O (stereo not drawn)
  A: 4; B: -11; C: 2.1; D: -19; E: ?; F: -1; G: 8

#10 COc1cc(C)ccc1OCCOCCOc1cc(C)c(C)cc1Br
  A: ·; B: ·; C: -3.2; D: -22; E: 2498; F: -3; G: -6

#11 COc1ccc(NC(=O)NNC(=O)C(C)Oc2ccc3ccccc3c2)cc1OC (stereo not drawn)
  A: 2; B: 2; C: 0.2; D: -18; E: 12568; F: 3; G: 0

#12 Cc1nn(-c2ccccc2)c2c1C(c1ccc(Br)s1)C(C#N)=C(N)O2 (stereo not drawn)
  A: 16; B: 0; C: 14; D: -15; E: 3308; F: ·; G: -7

#13 O=C(N/N=C/c1ccc([N+](=O)[O-])cc1)c1cc(C2CC2)nc2ccccc12
  A: ·; B: ·; C: ·; D: -23; E: 3501; F: -1; G: ·

#14 CCOC(=O)N1CCN(C(=O)c2ccc3c(c2)N(Cc2ccccc2)CCS3)CC1
  A: 2; B: 14; C: -3.3; D: -15; E: 5879; F: -2; G: -14

#15 COc1cccc(CNCc2ccccn2)c1OC
  A: -9; B: -6; C: -5.0; D: -14; E: 9035; F: 3; G: -6

#16 Cc1nc(Sc2ccc(Br)cc2)c(C#N)c(C)c1[N+](=O)[O-]
  A: 18; B: -2; C: 12; D: -15; E: 4309; F: 2; G: 8

#17 CC(C)CCNC(=O)CN(Cc1ccc(F)cc1)C(=O)CCC(=O)Nc1ccccn1
  A: 2; B: 10; C: -0.1; D: -12; E: 5973; F: 8; G: 12

#18 CC(c1ccccc1)n1cc(C(=O)NCCCn2ccnc2)nn1 (stereo not drawn)
  A: ·; B: ·; C: 2.7; D: -7; E: 4432; F: -2; G: 5

#19 CC(C(=O)NCCC1=CCCCC1)N1C(=O)c2ccccc2C1=O (stereo not drawn)
  A: 4; B: 7; C: 3.2; D: -14; E: 9759; F: -18; G: 1

#20 CCOC(=O)C1(Cc2cccc(F)c2)CCN(CCCn2cccn2)CC1
  A: -3; B: 1; C: 5.4; D: 5; E: 3777; F: 1; G: 6

#21 O=C(COn1nnc2ccc(Cl)cc21)Nc1ccc(F)cc1
  A: 5; B: -1; C: 1.4; D: 11; E: 4463; F: -4; G: -9

#22 O=C(NNC(=S)Nc1ccc(F)cc1)C1CC1c1ccc(Cl)cc1 (stereo not drawn)
  A: 8; B: 8; C: -4.8; D: -21; E: 2028; F: 3; G: -8

#23 COc1cccc(CN(C(=O)c2cnccn2)C(C(=O)NC2CCCCC2)c2cc(OC)c(OC)c(OC)c2)c1 (stereo not drawn)
  A: -7; B: 3; C: 1.6; D: -22; E: 5476; F: 0; G: 5

#24 COc1ccc2[nH]c(=O)c(CN(CCO)C(=O)NCc3ccccc3)cc2c1
  A: 4; B: -2; C: 3.0; D: -19; E: 7368; F: -1; G: 4

#25 c1ccc(-c2nnc(-c3ccccc3)c(-c3c[nH]c4ccccc34)n2)cc1
  A: ·; B: ·; C: -6.4; D: -23; E: 2709; F: -8; G: -9

#26 CC1CC(C#N)N(N(C)C)C1=C(C#N)C#N (stereo not drawn)
  A: 17; B: 2; C: 2.9; D: -9; E: 5940; F: -2; G: 11

#27 CSc1ncc(Cl)c(C(=O)Nc2nnc(SC)s2)n1
  A: ·; B: ·; C: 3.6; D: -25; E: 4499; F: 1; G: 9

#28 Cc1[nH]c(=O)nc(SCc2ccc(Cl)c(Cl)c2)c1C#N
  A: -5; B: 0; C: 6.2; D: -21; E: 3703; F: -8; G: 15

#29 O=C1CCC(C(=O)OCc2ccccc2)N1 (stereo not drawn)
  A: 4; B: 4; C: 1.4; D: -27; E: 24033*; F: 17; G: 6

#30 CCn1c2c(c3cc(Br)ccc31)CCC/C2=N\O
  A: ·; B: ·; C: ·; D: 10; E: 29475*; F: 3; G: ·

#31 CCN(c1ccccc1)c1ncnc2c1cnn2-c1ccccc1
  A: 7; B: 6; C: -6.2; D: -42; E: 5231; F: -1; G: 6

#32 COc1ccc(NC(=O)c2ccccc2NC(=O)C2CC=CCC2C(=O)O)cc1 (stereo not drawn)
  A: 0; B: 14; C: 0.7; D: -8; E: ?; F: ·; G: 1

#33 Nc1nc(-c2ccc([N+](=O)[O-])cc2)c(C(=O)Nc2ccc(Cl)cc2)s1
  A: -6; B: -5; C: 0.0; D: -27; E: 3344; F: 3; G: -5

#34 COc1cc(CN2CCN(c3ccccc3C)CC2)cc([N+](=O)[O-])c1O
  A: 13; B: -2; C: 2.7; D: -26; E: 2484; F: -9; G: 7

#35 O=C(CN(C(=O)c1ccccc1Cl)N1C(=O)C2C3C=CC(C3)C2C1=O)c1cccs1 (stereo not drawn)
  A: 3; B: -1; C: 2.3; D: -31; E: 4190; F: 0; G: -1

#36 O=C1CC(c2c(F)cccc2Cl)C2=C(COC2=O)N1 (stereo not drawn)
  A: ·; B: ·; C: 2.6; D: -17; E: 2883; F: 3; G: 0

#37 COc1cccc(CNn2cnnc2)c1OCc1ccc(F)cc1
  A: 10; B: 5; C: 8.3; D: 3; E: 9146; F: -8; G: -3

#38 N=C1/C(=C/c2coc3ccccc3c2=O)C(=O)N=C2SC(c3ccco3)=NN12
  A: 11; B: 9; C: 33; D: ·; E: 3861; F: -5; G: 3

#39 CN(C)P(=O)(NC(=O)c1cccn1C)N(C)C
  A: 9; B: 1; C: 0.6; D: -6; E: 4646; F: 10; G: 2

#40 COc1ccc(-c2nc(SCC(=O)Nc3c(F)cccc3F)n[nH]2)cc1
  A: 8; B: -3; C: 3.5; D: -22; E: ?; F: 2; G: 9

#41 CC(C)C(=O)Nc1cc(=O)[nH]c2ncnn12
  A: -6; B: -2; C: -0.3; D: 4; E: 8798; F: 8; G: -2

#42 CCCCc1cc(=O)oc2cc(C)cc(OCc3nn[nH]n3)c12
  A: ·; B: ·; C: 5.5; D: 3; E: 2626; F: 5; G: 1

#43 O=[N+]([O-])c1ccc(NN=Cc2ccccc2O)cc1
  A: 6; B: -10; C: -6.3; D: ·; E: ·; F: ·; G: -24

#44 COc1ccccc1N1CCN(C(=O)C2CC=CCC2C(=O)O)CC1 (stereo not drawn)
  A: 8; B: 5; C: -14; D: -1; E: 2615; F: 3; G: -2

#45 NC(=O)Cn1cc(/C=N\NS(=O)(=O)c2ccccc2)c2ccccc21
  A: ·; B: ·; C: ·; D: -39; E: 4745; F: 1; G: ·

#46 O=C(NCCc1ccccc1)c1ccc(Cl)nc1
  A: ·; B: ·; C: -1.6; D: -72; E: 2674; F: 13; G: 2

#47 Cc1occc1C(=O)NNC(=O)C1CC1
  A: 1; B: -5; C: 4.1; D: -9; E: 5988; F: 3; G: 5

#48 Cc1ccc(OC(C)C(=O)Nc2ncc(Cl)cc2Cl)c([N+](=O)[O-])n1 (stereo not drawn)
  A: 6; B: 8; C: 4.5; D: -17; E: 3756; F: ·; G: 4

#49 Cc1ccc(S(=O)(=O)N(C)C)cc1NC(=O)CSc1nc2ncc(Cl)cc2[nH]1
  A: 11; B: 4; C: 2.7; D: -8; E: 6105; F: ·; G: 5

#50 Cc1noc(C)c1NC(=O)N(C)C[C@H]1Oc2c(NC(=O)Cc3ccccc3)cccc2C(=O)N([C@H](C)CO)C[C@@H]1C
  A: 1; B: 10; C: 14; D: -10; E: 2686; F: ·; G: 14

Later entries
Screens by letter – A = Mtb hypoxia inh; B = Mtb hypoxia inh growth; C = RN4220 kill; D = PrP 5UTR inh; E = Bead autofluor; F = BJeLR viability; G = ugtP null kill
#51 Cc1ccc(C(=O)NC(=O)CSc2ncccc2C(=O)O)cc1
  A: 12; B: 1; C: 6.2; D: -7; E: 3605; F: -3; G: 7

#52 CCCNC(C)(C)COC(=O)c1ccccc1
  A: 4; B: 2; C: 9.0; D: -4; E: 4240; F: ·; G: 8

#53 CC1(C)CC(=O)C2=C(C1)NC(=O)C21C(C(=O)OC(C)(C)C)=C(N)Oc2ccc(Br)cc21 (stereo not drawn)
  A: -9; B: 2; C: 21; D: 3; E: 22960*; F: -11; G: -19

#54 COc1ccc(-c2ccc3c(c2)OC(=Cc2ccsc2)C3=O)cn1
  A: 7; B: 4; C: 6.2; D: ·; E: ·; F: ·; G: -26

#55 C#CCOCCOCCOCCNc1nc(N2CCN(C(=O)C(CO)n3cc(C(N)C(C)C)nn3)CC2)nc(N2CCN(C(=O)C(C(C)O)n3cc(C(N)CCCCN)nn3)CC2)n1 (stereo not drawn)
  A: 5; B: 9; C: 2.6; D: ·; E: ·; F: ·; G: -10

#56 O=C(O)c1cc(S(=O)(=O)NC23CC4CC(CC(C4)C2)C3)ccc1Cl
  A: 15; B: 8; C: 5.6; D: -15; E: 3900; F: 12; G: 7

#57 c1cncc(COC2CCCN(Cc3nc(-c4cccs4)no3)C2)c1 (stereo not drawn)
  A: 0; B: 1; C: 7.4; D: -12; E: 2006; F: -16; G: 13

#58 CCN(CC)CCNC(=O)c1ccc(NC(C)=O)cc1
  A: -4&5; B: 3&3; C: 0.5&5.4; D: -27&-35&-31&-7; E: 5826&6521; F: -1&4; G: -6&-4

#59 COC(=O)c1sc(NC(=O)COc2cccc(C)c2)nc1C
  A: -9; B: 0; C: 5.3; D: -17; E: 2387; F: 13; G: -3

Arranged by SMILES length (highest first): 6 of the compounds above.
Screens by letter – A = Mtb hypoxia inh; B = Mtb hypoxia inh growth; C = RN4220 kill; D = PrP 5UTR inh; E = Bead autofluor; F = BJeLR viability; G = ugtP null kill
#55 C#CCOCCOCCOCCNc1nc(N2CCN(C(=O)C(CO)n3cc(C(N)C(C)C)nn3)CC2)nc(N2CCN(C(=O)C(C(C)O)n3cc(C(N)CCCCN)nn3)CC2)n1 (stereo not drawn)
  A: 5; B: 9; C: 2.6; D: ·; E: ·; F: ·; G: -10

#56 O=C(O)c1cc(S(=O)(=O)NC23CC4CC(CC(C4)C2)C3)ccc1Cl
  A: 15; B: 8; C: 5.6; D: -15; E: 3900; F: 12; G: 7

#54 COc1ccc(-c2ccc3c(c2)OC(=Cc2ccsc2)C3=O)cn1
  A: 7; B: 4; C: 6.2; D: ·; E: ·; F: ·; G: -26

#51 Cc1ccc(C(=O)NC(=O)CSc2ncccc2C(=O)O)cc1
  A: 12; B: 1; C: 6.2; D: -7; E: 3605; F: -3; G: 7

#59 COC(=O)c1sc(NC(=O)COc2cccc(C)c2)nc1C
  A: -9; B: 0; C: 5.3; D: -17; E: 2387; F: 13; G: -3

#58 CCN(CC)CCNC(=O)c1ccc(NC(C)=O)cc1
  A: -4&5; B: 3&3; C: 0.5&5.4; D: -27&-35&-31&-7; E: 5826&6521; F: -1&4; G: -6&-4

Two entries from above, reformatted.
Order of values – Mtb hypoxia inh | Mtb hypoxia inh growth | RN4220 kill | PrP 5UTR inh | Bead autofluor | BJeLR viability | ugtP null kill
57) c1cncc(COC2CCCN(Cc3nc(-c4cccs4)no3)C2)c1 (stereo not drawn)
    0 | 1 | 7.4 | -12 | 2006 | -16 | 13
51) Cc1ccc(C(=O)NC(=O)CSc2ncccc2C(=O)O)cc1
    12 | 1 | 6.2 | -7 | 3605 | -3 | 7
